Assay outcomes: PubChem, National Center for Advancing Translational Sciences (NCATS)
GLA inh pH 4.5 = inhibitors of human alpha-galactosidase A at pH 4.5 | purified enzyme, 4-MU-alpha-Gal fluorescence, pH 4.5 | AID 1467 | activity change, negative = inhibition, % at 105 µM | 230,000 tested, under 10 active; inconclusive = small, poorly fitted or top-dose-only inhibition, or a rising curve; inactive = flat fitted curve, though single readings scatter; no compound was filed as active;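 note: 0% = full activity with enzyme and -100% = basal without enzyme; dose as in the result columns while the protocol names 77 µM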
Rango-impB inh = inhibitors of Rango-importin beta complex formation; Rango CFP/YFP FRET sensor + importin beta, 45 min; Potency, µM (series often up to 92.2 µM), for inactives: top-dose inhibition of complex formation; 340,000 tested, 0.031% active; AID 540263; active = rising FRET ratio curve, often small or poorly fitted; inconclusive = mostly compound fluorescence or quenching in the first reads; inactive = flat curves in all reads;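 note: potency is the fitted concentration of half-maximal effect; 0% = DMSO wells and 100% = buffer wells lacking importin beta; nearly all actives have a fitted effect of over 15% in size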
Target sequence (Q14974 whole entry, looked up): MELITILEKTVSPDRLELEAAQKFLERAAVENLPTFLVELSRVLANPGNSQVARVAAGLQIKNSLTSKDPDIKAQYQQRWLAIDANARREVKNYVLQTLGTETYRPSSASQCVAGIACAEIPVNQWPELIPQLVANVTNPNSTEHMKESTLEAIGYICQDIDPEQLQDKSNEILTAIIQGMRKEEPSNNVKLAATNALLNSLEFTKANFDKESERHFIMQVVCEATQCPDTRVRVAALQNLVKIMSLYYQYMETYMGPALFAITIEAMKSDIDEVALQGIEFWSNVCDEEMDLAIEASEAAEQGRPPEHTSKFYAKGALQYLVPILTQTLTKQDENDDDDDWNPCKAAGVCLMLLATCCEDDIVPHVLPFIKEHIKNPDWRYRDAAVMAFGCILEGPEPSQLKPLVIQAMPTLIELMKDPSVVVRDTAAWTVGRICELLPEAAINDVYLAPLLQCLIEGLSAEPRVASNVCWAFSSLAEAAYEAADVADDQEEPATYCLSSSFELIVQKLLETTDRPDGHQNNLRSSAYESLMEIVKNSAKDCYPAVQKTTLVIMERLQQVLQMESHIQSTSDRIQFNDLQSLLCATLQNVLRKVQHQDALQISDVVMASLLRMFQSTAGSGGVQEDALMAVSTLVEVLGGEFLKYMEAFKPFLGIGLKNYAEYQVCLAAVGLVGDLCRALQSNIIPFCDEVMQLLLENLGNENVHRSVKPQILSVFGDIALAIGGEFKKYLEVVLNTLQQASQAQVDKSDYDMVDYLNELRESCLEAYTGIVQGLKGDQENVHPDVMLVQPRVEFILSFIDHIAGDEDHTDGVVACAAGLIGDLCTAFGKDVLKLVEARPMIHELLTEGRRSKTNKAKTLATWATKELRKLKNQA
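FRET biosensor (snurportin 1 IBB flanked by EYFP and cerulean), 50 nM, with compound 5 min, then 0.125 microM importin beta in PBS, 1 mM DTT, 0.02% Tween-20, 0.1% BSA. CFP/YFP ratio read after 45 min at room temperature; pre-read flags interference.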
Rango release inh = inhibition of RanGTP-driven Rango-importin beta dissociation; O95149+P62826; Biochemical FRET Rango-importin beta, RanGTP-induced dissociation; Potency, µM (highest dose often 46.1 µM), for the others: at the highest dose activity change, negative = inhibition; 340,000 tested, 0.071% active; active means falling FRET ratio curve, often poorly fitted, with flat reads before Ran was added; inconclusive means other falling curves, or compound fluorescence or quenching; inactive means flat or rising ratio curve;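 note: potency is the fitted concentration of half-maximal effect; % of control where 0% means no effect; nearly all actives have a fitted effect of over 45% in size; -100% = wells without RanGTP and RCC1; the record marks most hits as doubtful in a second field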
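Rango/importin beta premix (0.1/0.25 uM final), PBS + 1 mM DTT + 0.02% Tween-20 + 0.1% BSA; cpd 5 min RT; FRET pre-read; + RanGTP-RCC1 (0.6 uM Ran, 2 mM GTP, 0.2 uM RCC1); 45 min RT; FRET post-read, ex 430, em 486/530 nm.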
miR-21 reporter = raises the signal of a miR-21 reporter | HeLa miR-21 FLuc reporter, luciferase, 48 h | 340,000 tested, under 10 active | Potency, µM (series often up to 38.3 µM), without a hit: at the top dose reporter change, positive = more light; active = well fitted rising curve with a large enough effect; inconclusive = small, poorly fitted or top-dose-only effect; inactive = no such curve, though single readings can be large or run the other way;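 note: % of control where 0% means no effect; miR-21 action dims this reporter so a rising signal means less miR-21 action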
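HeLa cells stably expressing CMV-driven firefly luciferase with a downstream miR-21 binding sequence, endogenously expressing miR-21, were treated with titrations (up to about 40uM final) for 48 hours at 37 degree Celsius. Luciferase luminescence was read after lysis.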
Active calls of the source: *; u = inconclusive; x = not tested or not shown; & = joins results of further samples. Not all compounds are listed; count on the stated rates, not on these rows.

A first look (2 entries):
SMILES | GLA inh pH 4.5 | Rango-impB inh | Rango release inh | miR-21 reporter
Cc1cc(C)cc(NC(=O)C(c2ccccc2)N2CCCC2)c1 (stereo not given) | 8 | 2.7% | -9% | -4%
CN(C)c1ccc(/C=N/n2c(-c3ccccc3Br)n[nH]c2=S)cc1 | -14 | -4.8% | -10% | -19%

Results, repeating the preview:
SMILES | GLA inh pH 4.5 | Rango-impB inh | Rango release inh | miR-21 reporter
Cc1cc(C)cc(NC(=O)C(c2ccccc2)N2CCCC2)c1 (stereo not given) | 8 | 2.7% | -9% | -4%
CN(C)c1ccc(/C=N/n2c(-c3ccccc3Br)n[nH]c2=S)cc1 | -14 | -4.8% | -10% | -19%
Cc1ccc(OCC(=O)N2CCN(S(=O)(=O)c3ccc(Cl)cc3)CC2)c([N+](=O)[O-])n1 | -8 | 4.8% | 17% | -3%
O=C(C=Cc1ccc2c(c1)OCO2)c1ccccc1 | x | u | -14% | x
O=C(Nc1cccnc1)c1ccc(Oc2ccccc2)cc1 | -5 | -1.6% | 2% | -2%
O=c1[nH]c(-c2ccc(F)cc2)nc2c1sc(=S)n2-c1ccccc1 | 1 | 0.6% | 6% | 1%
O=S(=O)(c1ccccc1)N1CCN(c2ccnc3cc(Cl)ccc23)CC1 | 3 | u | -6% | 26%
CCN(CC)CCSc1nc(O)c(Cc2ccccc2)c(=O)n1-c1ccccc1 | 9 | -2.6% | 1% | 1%
Cc1cccc(C)c1NCC(=O)N1CCN(Cc2ccccc2)CC1 | x | -0.8% | -1% | -2%
Cc1ccc(Cl)cc1N1CCN(S(=O)(=O)c2c(C)[nH]c(C)c2C(=O)N2CCCCC2)CC1 | x | 1.7% | 2% | 13%
COc1cc(C(=O)N(Cc2cccc(Cl)c2)C2CCS(=O)(=O)C2)cc(OC)c1OC (stereo not given) | 5 | 1.1% | -25% | -4%
COc1ccc(-c2nc(CCNC(=O)c3cccs3)cs2)cc1 | 8 | 5.2% | 7% | 8%&10%
COc1ccccc1C1(O)CCN(C(=O)c2cccs2)CC1 | -4 | 0.3% | 17% | -8%
O=C(CCc1ccccc1)Nc1sc2c(c1C(=O)O)CCCC2 | x | 0.4% | -1% | x
CC1CC(OCC(O)CN2CCOCC2)CC(C)(C)C1 (stereo not given) | 0 | 2.7% | 11% | -1%
CC(/C=N/NC(=O)CN1CCN(Cc2ccc(Cl)cc2)CC1)=C\c1ccco1 | -6 | 0.2% | -4% | -1%
C#CCNC(=O)C1=C[C@H](c2ccc(Br)cc2)C[C@H](OCc2ccc(CO)cc2)O1 | 1 | -3.4% | -5% | -8%
COCCn1nnnc1CN1CCC(C)CC1 | 2 | -0.3% | 13% | -1%
CC1CCCCN1S(=O)(=O)c1ccc([N+](=O)[O-])cc1 (stereo not given) | x | 1.0% | 6% | -7%
O=C(Nc1ccc2c(c1)OCO2)c1ccc(Cl)c(S(=O)(=O)N2CCOCC2)c1 | x | 0.7% | 22% | 2%
O=C(CC1Sc2ccccc2NC1=O)NNc1ccc(Cl)c(Cl)c1 (stereo not given) | x | 2.2% | -10% | x
COCCn1c(SCc2ccc(C)cc2)nc2c1c(=O)[nH]c(=O)n2C | x | -4.8% | 22% | x
Cc1onc(-c2ccccc2Cl)c1C(=O)OCC(=O)c1ccc[nH]1 | x | 2.9% | -6% | x
CCc1nc(SC)[nH]c(=O)c1C | -1 | -2.0% | 2% | -7%
CCN1CCN(C(=O)/C=C/c2ccc(C)cc2)CC1 | x | 0.9% | 0% | -8%
C/C(CCC1CC(C)OC1=O)=N\NC(N)=S (stereo not given) | 1 | 0.2% | 2% | 9%
COc1cc2cc(C(=O)O)[nH]c2c(OC)c1OC | -2 | 4.7% | -5% | -1%
COc1cc2[nH]c(C(=O)N3CCN(C)CC3)cc2c(OC)c1OC | x | -0.4% | 1% | 1%
CC(=O)N1CCN(C(=O)CNC(=O)c2cccs2)CC1 | x | 3.3% | 3% | x
COc1ccc(N2C(=O)CC(Sc3n[nH]c(-c4ccccc4)n3)C2=O)cc1 (stereo not given) | -1 | 4.1% | 8% | 1%
Cc1cc(F)ccc1NC(=O)C1CCN(S(=O)(=O)c2ccc3c(c2)CCCC(=O)N3)CC1 | x | 2.5% | 9% | 0%&-3%
CCN(CC)c1ccc(/C=N/n2c(=S)[nH]nc(C)c2=O)cc1 | -2 | -1.0% | 0% | -2%
CC(=O)OCC1=C(C(=O)O)N2C(=O)C(NC(=O)COc3ccc(F)cc3)C2SC1 (stereo not given) | x | -0.2% | -10% | x
Cc1ccc(S(=O)(=O)Nc2cc(S(=O)(=O)N3CCOCC3)ccc2NCC2CCCO2)cc1 (stereo not given) | x | -0.1% | -3% | x
CC1=C(C(=O)OCC2CCCO2)C(c2ccc(C)o2)C2=C(CC(c3ccc(N(C)C)cc3)CC2=O)N1 (stereo not given) | -10 | x | x | 10%
CCOC(=O)N1CCC(N2C(=O)c3ccccc3C2Nc2c(C)cccc2C)CC1 (stereo not given) | -1 | -0.9% | -1% | -5%
CC(C)C(NC(=O)c1ccco1)C(=O)NC1CCCCCC1 (stereo not given) | x | -1.7% | -8% | 0%
COc1ccc(NC(=O)CN(Cc2ccccc2)S(C)(=O)=O)cc1OC | 0 | 0.6% | 7% | -2%
Nc1cccc(C(=O)c2ccccc2C(=O)O)c1 | x | 0.5% | -20% | x
Cc1cc(C)cc(NC(=O)C(=O)NCCCN2CCOCC2)c1 | 4 | -1.9% | -11% | -6%&-4%
Cc1cccc(NC(=S)N(CCN(C)C)C(C)c2ccccn2)c1 (stereo not given) | 8 | 2.8% | 2% | -1%
CCc1ccccc1NS(=O)(=O)c1ccc2c(c1)NC(=O)CC(=O)N2 | 1 | 1.9% | -12% | -3%
CSCc1nnc(NC(=O)c2ccc(S(=O)(=O)N(CC(C)C)CC(C)C)cc2)o1 | 4 | x | x | u
COc1ccccc1N1CCN(C(=O)CSc2nc(C)cc(=O)[nH]2)CC1 | -4 | -1.3% | 10% | -6%&-7%
COc1ccc(CCNC(=O)CCC(=O)N2CC(C)Oc3ccccc32)cc1OC (stereo not given) | x | 1.0% | -3% | -6%
O=C(Nc1cc(Cl)cc(Cl)c1)N1CCN(C(=O)C2CCCO2)CC1 (stereo not given) | x | 0.1% | 5% | -5%
Cc1ccc(S(=O)(=O)Nc2ccccc2N(C)S(=O)(=O)c2ccc(C)cc2)cc1 | x | 0.0% | 3% | x
CSCCC(NS(=O)(=O)c1ccc2c(c1)c(=O)n(C)c(=O)n2C)C(=O)NC1CCN(Cc2ccccc2)CC1 (stereo not given) | -3 | -3.3% | -1% | -1%
CCCC12CN3CCN(CC(C3)/C1=N\NC(=O)c1ccccc1Cl)C2 | 3 | 1.5% | 8% | -4%
CCn1cc(C(=O)NC2CCCCC2)c(=O)c2cc(S(=O)(=O)N(C)C)ccc21 | 9 | 7.9% | -20% | 1%
Cc1ccc(C(=O)NCc2ccc(Cl)cc2)o1 | -4 | 4.9% | -5% | -8%
Cn1c(/C=C/c2ccc(Br)cc2)nc2ccccc2c1=O | x | -1.0% | -3% | -34%
O=C(/C=C/c1ccc(Cl)cc1)Nc1nccs1 | -2 | 1.2% | -6% | -17%
Oc1ccccc1C1CCCCC1c1ccccc1 (stereo not given) | x | -0.1% | 15% | 1%
C=CCn1c(/N=C/c2ccc(OC)cc2)nc2ccccc21 | x | 3.3% | 8% | -1%
CCC(=S)/C=C1\Sc2ccc3ccccc3c2N1CCCS(=O)(=O)O | -7 | x | x | -3%
O=C(O)c1ccc(-n2nncc2-c2ccccc2)cc1 | x | 1.2% | -15% | 0%
Cc1ccc2nc(N3CCN(C(=O)c4ccc(F)cc4)CC3)c(C#N)cc2c1 | x | u | u | 3%
CCOc1ccc(Nc2cc(C)c3ccccc3n2)cc1 | x | -1.7% | 11% | -66%
CCCCNC(=S)Nc1cc(S(=O)(=O)N2CCCCC2)ccc1C | -17 | 4.9% | -5% | 5%

Other results
SMILES | GLA inh pH 4.5 | Rango-impB inh | Rango release inh | miR-21 reporter
CCOc1cccc2cc(C(N)=O)c(=NCc3ccccc3)oc12 | -1 | 0.0% | 0% | -3%
NC(=O)CN1C(=O)C2CCCCN2C(=O)c2ccccc21 (stereo not given) | 4 | 0.2% | 16% | -2%
CC(=O)NC(Cc1cc(C)ccc1C)C(=O)N1CCN(C(=O)c2ccc([N+](=O)[O-])cc2)CC1 (stereo not given) | x | 3.2% | -16% | 0%
Clc1cccc(Cl)c1/C=N\Nc1nccs1 | 6 | -1.5% | -6% | -1%
CC(=O)c1ccc(OCC(C)C)c(Cc2c(O)nc(N)[nH]c2=O)c1 | 0 | 0.7% | -9% | -2%
O=C(NCc1cccs1)c1cccnc1C(=O)O | -15 | 5.9% | 11% | -5%
CCOc1ccc(CCNC(=O)Cc2ccc(NC3=NC4CS(=O)(=O)CC4S3)cc2)cc1 (stereo not given) | x | 0.4% | 21% | 1%
CCCC[n+]1ccc(-c2nc3ccc([N+](=O)[O-])cc3[nH]2)cc1 | 5 | u | -5% | -28%
CSc1nc(N)nc(N(C)C)n1 | -5 | -0.2% | 9% | -1%
O=C(N/N=C/c1ccc(O)cc1O)c1ccc(CN2C(=O)c3cccc4cccc2c34)cc1 | -9 | u | u | 14%
COc1ccc(S(=O)(=O)N2CCC(C(=O)N3CCCC3)CC2)cc1C | x | 3.0% | 9% | 1%
O=C(CC1C[C@H](C(=O)N2CCCCC2)[C@@]2(CCc3ccccc3)c3[nH]c4ccccc4c3CCN2C1=O)NCc1ccco1 (stereo not given in full) | x | 3.9% | -23% | x
CCC(=O)N1N=C(c2ccc(NS(C)(=O)=O)cc2)CC1c1ccc(N(C)C)cc1 (stereo not given) | 2 | -2.9% | 8% | -53%
O=C(c1ccc(S(=O)(=O)Nc2ccccc2)cc1)N1CCCCCCC1 | x | -0.4% | -3% | -5%
O=C(CCNC(=O)Cn1ccc2ccccc2c1=O)NCCN1CCN(c2ccccc2F)CC1 | x | 1.4% | -3% | x
CCOc1ccc(S(=O)(=O)N2CCCCC2)cc1NC(=O)CCc1ccc(OC)cc1 | x | 6.3% | -1% | x
Cc1cc(C)cc(N(CC(=O)NC2CCCCC2)C(=O)CCC(=O)Nc2cc(C)ccn2)c1 | 1 | 7.8% | -6% | -3%
COc1ccc(-c2csc(NC(=O)c3ccco3)n2)cc1 | -2 | -1.7% | -8% | -45%
O=C(Nc1c(C(=O)N2CCOCC2)cnn1-c1ccccc1)c1ccco1 | 1 | -0.1% | -4% | -1%
Cc1c(Nc2cc(N3CCCCCC3)c3nonc3c2[N+](=O)[O-])c(=O)n(-c2ccccc2)n1C | 2 | -0.1% | -2% | -2%
Cc1ccc(S(=O)(=O)NN2C(=O)/C(=C/c3ccccn3)SC2=S)cc1 | -5 | 0.4% | -8% | 0%
COc1ccc(Cl)cc1NC(=O)CN(C)CC(=O)Nc1cc(OC)c(OC)c(OC)c1 | x | 0.1% | 20% | 17%
O=C(COC(=O)c1ccccc1C(=O)c1ccccc1)NCc1ccc(F)cc1 | 2 | -0.9% | 2% | -2%
O=C(c1ccc(COc2ccc(F)cc2)o1)n1cc(Br)cn1 | 3 | -2.0% | -9% | -14%
COc1ccccc1N1CCN(c2cc(=O)n(-c3ccc(Cl)cc3)c(=O)[nH]2)CC1 | 6 | -3.1% | 0% | 0%
O=S(=O)(c1ccc(F)cc1F)N1CCN(CCO)CC1 | x | -3.8% | 2% | x
COC(=O)NCCOC(=O)N(O)c1ccc(Br)cc1 | 4 | 5.7% | -2% | -10%
O=C(COc1ccc2c(c1)OCO2)NC12CC3CC(CC(C3)C1)C2 | -1 | -0.3% | -6% | -40%

Single records, as listed above.
`O=C(c1ccc(COc2ccc(F)cc2)o1)n1cc(Br)cn1` in the list: GLA inh pH 4.5 = 3; Rango-impB inh = -2.0%; Rango release inh = -9%; miR-21 reporter = -14%
`COc1ccccc1N1CCN(c2cc(=O)n(-c3ccc(Cl)cc3)c(=O)[nH]2)CC1` in the list: GLA inh pH 4.5 = 6; Rango-impB inh = -3.1%; Rango release inh = 0%; miR-21 reporter = 0%
